Screens as filed in PubChem BioAssay.
StopGo RLuc = Primary qHTS Assay for Foot and Mouth Disease Virus Antivirals against NCGC Sytravon and CBC Compound Libraries: Renilla Luciferase Signal; Potency, µM (top dose mostly 57.5 µM), for inactives: at the top dose signal change, negative = less light; HEK cells with a luciferase reporter of 2A StopGo recoding; actives 0.32% (n = 120,000); AID 1745857, 2022; active means well fitted falling curve with a large enough effect; inconclusive means small, poorly fitted or top-dose-only effect; inactive means no such curve, though single readings can be large or run the other way; note: nearly all actives have a fitted effect of over 55% in size; overnight with compound
StopGo FLuc = Primary qHTS Assay for Foot and Mouth Disease Virus Antivirals against NCGC Sytravon and CBC Compound Libraries: Firefly Luciferase Signal; HEK cells with a luciferase reporter of 2A StopGo recoding; Potency, µM (titrated, usually from 57.5 µM), without a hit: at the top dose signal change, negative = less light; actives 0.23% (n = 120,000); active = well fitted falling curve with a large enough effect; inconclusive = small, poorly fitted or top-dose-only effect; inactive = no such curve, though single readings can be large or run the other way; note: nearly all actives have a fitted effect of over 60% in size; overnight with compound
* marks the source's active call; other numbers are inactive results; ? = inconclusive; [ ] = remark or other dose. % is set by controls: 0 for no effect and ±100 for the full control effect; potency is the fitted concentration of half-maximal effect. An unsorted share of the library. About 0.55% of those tested had a hit in this group.

entry	SMILES	StopGo RLuc	StopGo FLuc
1	Cc1ccc(-c2csc(NC(=O)c3cc(=O)c4ccccc4o3)n2)cc1C	6%	54%[activator]
2	COc1ccccc1CNC(=O)CCC1N=C2c3ccccc3N=C(SCc3cccc(Cl)c3)N2C1=O (stereo not drawn)	-7%	-19%
3	COc1ccc(CNC(=O)c2nc(CC(=O)Nc3cccc4ncccc34)no2)cc1	-20%	2%
4	O=C(O)CCCC(=O)N1N=C(c2ccsc2)CC1c1ccc(F)cc1 (stereo not drawn)	-4%	8%
5	COc1ccc(-c2cc3nc(C)c(CCC(=O)Nc4ccccc4C(C)=O)c(C)n3n2)c(OC)c1	-1%	?
6	Cc1c(C(=O)NC2CCS(=O)(=O)C2)nnn1-c1ccccc1F (stereo not drawn)	1%	28%
7	Cc1cc2ccccc2n1CC(=O)NCc1ccccc1	-5%	-1%
8	COc1ccc(-n2nc(C)c3c2NC(=O)CC3c2ccccc2OCC(C)C)nn1 (stereo not drawn)	-2%	9%
9	C/C(=N\NC(=O)c1cccs1)c1ccccn1	?	110%[activator]
10	O=C1C(Nc2ccccc2)=CC(c2ccccc2F)N1c1ccccc1 (stereo not drawn)	16%	129%[activator]
11	Cc1ccc(CSc2oc(-c3ccco3)nc2S(=O)(=O)c2ccc(Cl)cc2)cc1	6%	-14%
12	CC(C)n1c(SCC(=O)NCc2cccs2)nnc1-c1ccc2c(c1)OCCCO2	?	?
13	Cc1[nH]c2ccccc2c1-c1csc(NC(=O)C2CCC2)n1	10%	45%[activator]
14	COc1cn(CC(=O)Nc2ccc(C(F)(F)F)cc2)c(CN2CCN(C(C)=O)CC2)cc1=O	-3%	5%
15	CC(C)=CC1C(C(=O)NC23CC4CC(CC(C4)C2)C3)C1(C)C (stereo not drawn)	-12%	9%
16	O=C(NC1CC1)c1cc(-c2ccccc2Cl)nc2ccccc12	6%	9%
17	Cc1ccc(C(=O)O)cc1I	-8%	18%
18	COc1ccc(OCCn2c(NC(=O)c3ccc(OC)cc3)nc3ccccc32)cc1	-11%	21%
19	COc1cc(C(=O)Nc2sc(C(=O)OC(C)C)c(C)c2C#N)cc(OC)c1OC	-14%	-4%
20	O=c1c2cnc3ncnn3c2ccn1-c1cc(Cl)ccc1Cl	0%	4%
21	C=CCN(Cc1cccs1)C(=O)/C=C/c1ccccc1	83%[activator]	12%
22	O=C(Cn1nnc(-c2ccc(F)cc2)n1)Nc1cccc(S(=O)(=O)N2CCCC2)c1	22%	-28%
23	O=C(NCc1ccc(Cl)cc1)c1cc2ccc3cccnc3c2[nH]1	-1%	6%
24	Clc1ccc(CNCCN2CCCC2)cc1	-8%	8%
25	CN1CCN(NC(=O)c2ccc(Cl)cc2Cl)CC1	-5%	10%
26	CC(C)C(NC(=O)N1CCC(NS(=O)(=O)c2cccs2)CC1)c1ccc(F)cc1 (stereo not drawn)	-18%	-13%
27	N#CCCCN1CCCCC1	7%	6%
28	Oc1cccc(C=Nc2cccc3ccccc23)c1	-6%	14%
29	COc1ccc(-c2nc(CSCC(=O)NCc3ccc(F)cc3)c(C)o2)cc1OC	-1%	-2%
30	Cn1c(=O)[nH]c(=O)c2c1nc(NCCO)n2CCOc1ccccc1	8%	22%

Full records, looked up by structure.
Entry for `Oc1cccc(C=Nc2cccc3ccccc23)c1` → StopGo RLuc = -6%; StopGo FLuc = 14%
Entry for `CN1CCN(NC(=O)c2ccc(Cl)cc2Cl)CC1` → StopGo RLuc = -5%; StopGo FLuc = 10%

Gathered by group: those above containing a COOH group
entry	SMILES	StopGo RLuc	StopGo FLuc
4	O=C(O)CCCC(=O)N1N=C(c2ccsc2)CC1c1ccc(F)cc1 (stereo not drawn)	-4%	8%
17	Cc1ccc(C(=O)O)cc1I	-8%	18%

Remaining list, next part.
entry	SMILES	StopGo RLuc	StopGo FLuc
31	COc1ccc2c(c1)Cc1sc(NC(=O)c3ccccc3C)nc1-2	-5%	0%
32	O=C(CCc1ncc(-c2c(F)cccc2F)o1)NCc1ccccc1	35%[activator]	77%[activator]
33	COCCn1cnc2c1c(=O)n(CC(O)COc1ccc(C(C)(C)C)cc1C)c(=O)n2CC(C)C (stereo not drawn)	-10%	-6%
34	COc1ccc(NC(=O)COc2ccc(Cl)cc2)c2cccnc12	11µM*	?
35	Cc1cc(C)c2oc(-c3ccc(NC(=O)c4cc(Br)ccc4Cl)cc3)nc2c1	-4%	9%
36	O=S1(=O)N(Cc2ccccc2)CCCN1Cc1ccc(F)cc1Cl	100%[activator]	-8%
37	COc1ccc(S(=O)(=O)Nc2ccc3c(c2)sc(=O)n3C)cc1Cl	-17%	16%
38	COc1ccccc1CNC(=O)CCCn1nc(C)c2c(C)n(-c3ccc(C)cc3)nc2c1=O	15%	0%
39	CC(CNC(=O)CN1C(=O)COc2ccc(S(=O)(=O)N3CCCCC3)cc21)c1ccccc1 (stereo not drawn)	56%[activator]	-14%
40	CCN(CC)S(=O)(=O)NCc1ccnc(N2CCN(c3ccc(F)cc3)CC2)c1	10µM*	?
41	COc1ccccc1CNC(=O)CCC(=O)N1CC2CCCN2c2ccccc21 (stereo not drawn)	40%[activator]	-4%
42	Cc1c(Cc2ccccc2)c(=O)oc2c(C)c(OC(C)C(=O)O)ccc12 (stereo not drawn)	-4%	10%
43	CCN(CC)CCNC(=O)c1nc(-c2ccc3cc[nH]c3c2)no1	-10%	11%
44	COc1cccc(CC(=O)N2CCN(C(C)C(=O)NC(N)=O)CC2)c1 (stereo not drawn)	-3%	-10%
45	CCOc1ccc(N/C=C/C(=O)c2ccc(C)c(C)c2)cc1	9%	59%[activator]
46	CN(C)C(=O)COC(=O)c1cccnc1Nc1ccccc1F	3%	18%
47	CCOC(=O)C1C(=O)C=C(/C=C/c2ccco2)CC1c1ccccc1 (stereo not drawn)	-1%	5%
48	CSC1=N/C(=C\c2cccs2)C(=O)S1	13%	18%
49	COc1cc(-c2ccc(=O)[nH]n2)ccc1OC(F)F	-12%	-15%
50	CN(C)C(CNC(=O)CCc1ncc(-c2ccc(F)cc2F)o1)c1ccco1 (stereo not drawn)	-21%	45%[activator]
51	N#Cc1nc(COc2ccc(Br)cc2)oc1NCc1ccco1	-8%	0%
52	CCOC(=O)N1CCc2c(sc3c2c(=O)n(CCc2ccccc2)c(=O)n3CC(=O)Nc2cccc(C)c2)C1	-16%	-16%
53	CSc1ccccc1C(=O)Nc1cccc2ccccc12	9%	40%[activator]
54	O=c1c2cc3c(nc2ncn1Cc1ccc(Cl)cc1)CCCC3	5%	-4%
55	CCC1CN(C(=O)N2CCC(C(=O)Nc3ccccc3F)CC2)c2ccccc2O1 (stereo not drawn)	-8%	-24%
56	Cc1ccccc1C(=O)Nc1ccc2oc(=O)ccc2c1	28%	191%[activator]
57	Cc1ccn2c(=O)c(C(=O)NCCc3ccccc3)c(O)nc2c1	-10%	-1%
58	C(#CCN1CCN(CC#CCOCCOCc2ccccc2)CC1)COCCOCc1ccccc1	5µM*	4.5µM*
59	O=C(CCC(=O)N1CCSc2ccccc21)NCc1ccccc1Cl	1%	5%
60	Cc1ccccc1CC(=O)N(C)Cc1ccsc1	50%[activator]	14%
61	Cc1ccc(S(=O)(=O)NC(=O)NC2CCCC2)cc1	15%	-15%[11.5 µM]
62	Cn1c(=O)c2c(nc(NCc3ccco3)n2Cc2cccc(Br)c2)n(C)c1=O	-9%	-23%
63	COc1ccccc1N1CCN(C(=O)C(C)Sc2nc(Cl)nc3nc[nH]c23)CC1 (stereo not drawn)	3%	16%
64	CS(=O)(=O)c1ncc(Cl)c(C(=O)N(Cc2ccc(Cl)cc2)Cc2ccco2)n1	?	?
65	CN(C(=O)CSc1nnc(-c2ccccc2)n1C)C1CCS(=O)(=O)C1 (stereo not drawn)	-14%	-6%
66	COc1cccc(OS(=O)(=O)c2ccc3c(c2)CCCC3)c1	44%[activator]	91%[activator]
67	CC(C)c1cc(C(=O)Nc2ccc(Cl)cc2F)cs1	54%[activator]	194%[activator]
68	CCOc1ccccc1NC(=O)c1c(NC(=O)c2cccc(C)c2)sc2c1CCCC2	-7%	-20%
69	O=C(CSc1nnc(N2CCOCC2)n1-c1cccc(F)c1)Nc1ccc2c(c1)CCC2	-8%	-10%
70	CCc1ccc(NC(=O)Cn2ccn(-c3ccc(OC)c(OC)c3)c(=O)c2=O)cc1	-1%	-2%
71	O=C(OC1CCCCC1)c1ccc(SCc2ccccc2F)c([N+](=O)[O-])c1	9%	0%
72	CCOC(=O)c1cnc2c(C)c(Cl)ccc2c1Nc1ccc(C)cc1C	?	-12%
73	COc1ccc(Nc2ccc3nnc(-c4ccccc4Cl)n3n2)cc1	-11%	-4%
74	O=C(CN1CCCC1)N1CCN(S(=O)(=O)c2cccc(F)c2)CC1	-18%	-10%
75	Cc1ccc(CNC(=O)c2ccc3c(c2)N(Cc2ccccc2F)C(=O)c2ccccc2S3(=O)=O)cc1	32%[activator]	-6%
76	Cc1ccc(CCC(=O)NCc2ccccn2)cc1	11%	26%
77	CCN1CCN(C(=O)c2cc3ccc(OC)cc3[nH]2)CC1	10%	195%[activator]
78	c1ccc(-c2nnc(SCC3CCOCO3)n2-c2ccccc2)cc1 (stereo not drawn)	2%	-3%
79	CC(C)(C)SCC(=O)NN=C(c1ccccc1)c1ccccc1	36%[activator]	-9%
80	COc1ccc(OC)c(CCNC(=O)CN2C(=O)COc3ccc(S(=O)(=O)N4CCC(C)CC4)cc32)c1	0%	11%
81	CCOCCn1ccc2c(OCC(=O)Nc3cccc(F)c3)cccc2c1=O	43%[activator]	-8%
82	CC1CCN(C(=O)CSc2c(C(C)C)cnc3c2c(=O)n(C)c(=O)n3C)CC1	-2%	1%
83	Cc1ccsc1CN(C(=O)c1oc2ccc(F)cc2c1C)C1CCS(=O)(=O)C1 (stereo not drawn)	10%	18%
84	COCCNC(=O)CN1CCN(c2cc(-c3nc4ccccc4s3)c3ccccc3n2)CC1	-3%	32%[activator]
85	Cc1cc(NC(=O)c2cc(-c3ccc(Cl)c(Cl)c3)on2)n(-c2ccccc2)n1	-7%	0%
86	CN(C)C(=O)C1CC1c1cccc(Br)c1 (stereo not drawn)	18%	57%[activator]
87	COc1ccc(CCNC(=O)c2c(C)oc3ncn(CC(C)C)c(=O)c23)c(OC)c1	8%	-7%
88	Cc1ccc(C(CNC(=O)CCc2nc(-c3cccnc3)no2)N(C)C)cc1 (stereo not drawn)	-5%	2%
89	Cc1ccc(/C=N/NC(=O)c2ccccc2)cc1	-11%[1.06 µM]	27%
90	COc1ccccc1OCc1nc(-c2cccc(C)c2)no1	6%	191%[activator]

Later entries:
entry	SMILES	StopGo RLuc	StopGo FLuc
91	CC(C)C(NC(=O)c1cccs1)c1ccc2c(c1)OCCCO2 (stereo not drawn)	?	?
92	O=C(CCSCc1ccccc1Cl)N1CCN(c2cccc(Cl)c2)CC1	1%	-9%
93	Cn1c(SCC(=O)Nc2nc3ccccc3s2)ncc(C(=O)Nc2ccc(Cl)cc2)c1=O	-8%	-10%
94	Cn1c(=O)c2c(nc(NCc3ccco3)n2Cc2ccc(Cl)cc2Cl)n(C)c1=O	8%	16%
95	Cc1cc2c(cc1C)CSC(c1ccc(N(C)C)cc1)SC2	-5%	8%
96	COc1ccc(NC(=O)c2noc3c2CC(C)CC3)c(OC)c1 (stereo not drawn)	0%	58%[activator]
97	O=C(NC1CC1)C1CCN(Cc2nnc(-c3ccccc3)o2)CC1	-7%	2%
98	COc1ccc2ccccc2c1/C=C(/C#N)C(N)=O	17%	36%[activator]
99	CCc1ccc(NC(=O)C2=CC(c3cccs3)=NS(=O)(=O)N2C)cc1	-21%	13%
100	COc1nc2cc(C)c(C)cc2nc1C(=O)Nc1ccc(Cl)cc1	-7%	-1%
101	Cc1cc(C)c(NC(=O)CSc2ncc(-c3ccc(F)cc3)o2)c(C)c1	-15%	-3%
102	O=C(NCC(c1ccco1)S(=O)(=O)c1cccs1)c1c(F)cccc1F (stereo not drawn)	24%	-16%
103	COc1ccccc1COCC(O)Cn1nc(-c2ccccc2)c2ccccc2c1=O (stereo not drawn)	21%	-8%
104	CC[C@H]1CN2CCc3cc(OC)c(OC)cc3[C@@H]2C[C@@H]1C[C@H]1NCCc2cc(OC)c(OC)cc21	-71%	-60%[11.5 µM]
105	O=C(c1ccc(Cl)s1)N(Cc1cccnc1)c1nc2c(F)cc(F)cc2s1	2%	20%
106	CCn1cnc2c1c(=O)n(CC(=O)NC1CCS(=O)(=O)C1)c(=O)n2Cc1ccccc1 (stereo not drawn)	3%	17%
107	COc1ccc(CCNC(=O)CSC2=Nc3ccccc3C3=NC(CCC(=O)NCc4ccccc4)C(=O)N23)cc1OC (stereo not drawn)	-3%	-11%
108	COc1ccc(-c2cc(=O)c3cc(OCC(=O)Nc4ccccc4)ccc3o2)cc1	9%	39%[activator]
109	COc1ccccc1NC(=O)Cn1nc(N2CCN(c3cccc(Cl)c3)CC2)ccc1=O	?	?
